MenB inh – M. tuberculosis MenB inhibitors, primary screen, biochemical, absorbance; actives 0.43% (n = 100,000); inhibition, %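 (about 12 µg/mL by stock and volumes)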; 1,4-dihydroxy-2-naphthoyl-CoA synthase (Mycobacterium tuberculosis (strain ATCC 25618 / …; AID 540299, 2011; MenB enzyme assay, absorbance read-out; some hits fall short of the stated cut;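 active = mean of two replicates above 30%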;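 also: 0% = no compound and 100% = wells with inactive enzyme; the first replicate is given; strong numbers were not always called active; inactives centre near -10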
Target sequence (P9WNP5 whole entry, looked up): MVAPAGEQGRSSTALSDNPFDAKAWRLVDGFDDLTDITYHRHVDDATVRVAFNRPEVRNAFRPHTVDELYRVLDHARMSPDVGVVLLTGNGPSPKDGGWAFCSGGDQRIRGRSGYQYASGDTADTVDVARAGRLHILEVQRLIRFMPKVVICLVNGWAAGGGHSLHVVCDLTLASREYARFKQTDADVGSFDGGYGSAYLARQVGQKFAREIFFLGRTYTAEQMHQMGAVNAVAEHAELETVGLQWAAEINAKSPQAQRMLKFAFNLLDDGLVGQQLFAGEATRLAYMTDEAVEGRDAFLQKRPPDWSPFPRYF
Mtb MbtI inh – MbtI salicylate synthase inhibitors, primary screen, biochemical, fluorescence intensity. P9WFX0. purified MbtI enzyme, fluorescence intensity read-out. actives 0.89% (n = 100,000). inhibition, %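 (about 17 µg/mL by stock and volumes)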;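 active = above 50% in both replicates, above 80% if mildly self-fluorescent; inactive = the rest, strongly fluorescent compounds included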;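 also: 0% = mean of negative and 100% = mean of positive controls; one replicate is shown; some compounds called inactive have numbers as strong as hits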
Polio RdRp inh – poliovirus RdRp elongation inhibitors, primary screen, biochemical, fluorescence polarization, total intensity. poliovirus polymerase elongation; stronger effect = lower value. Genome polyprotein (Poliovirus type 1 (strain Mahoney)), P03300. actives 0.66% (n = 150,000). % elongation, % (compound at 16.7 µg/mL); in the data active = % elongation below about 90%; also: some results filed as inactive read as strong as hits
Target sequence (P03300 1749-2209 limits assumed): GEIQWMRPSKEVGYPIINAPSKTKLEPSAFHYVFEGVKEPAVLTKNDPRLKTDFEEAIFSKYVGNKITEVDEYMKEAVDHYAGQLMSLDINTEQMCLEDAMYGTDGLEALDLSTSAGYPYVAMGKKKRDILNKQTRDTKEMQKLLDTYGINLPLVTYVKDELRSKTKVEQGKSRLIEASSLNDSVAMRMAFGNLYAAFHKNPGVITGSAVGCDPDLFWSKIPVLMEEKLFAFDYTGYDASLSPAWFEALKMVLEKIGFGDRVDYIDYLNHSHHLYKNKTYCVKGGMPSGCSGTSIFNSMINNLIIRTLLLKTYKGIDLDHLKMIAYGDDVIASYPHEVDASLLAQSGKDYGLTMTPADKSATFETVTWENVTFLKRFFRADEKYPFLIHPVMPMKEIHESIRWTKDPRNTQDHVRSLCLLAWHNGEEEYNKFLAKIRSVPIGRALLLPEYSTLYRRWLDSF
Polio RdRp inh intensity – further read-out of Polio RdRp inh, marked with its call; % elongation; measured here: total intensity read-out; formula for this scale not given here;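 total fluorescence in place of polarization; lower means less elongation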
An asterisk follows results filed as active; i = inactive; x = no result given; & = joins results of further samples. Rows are unselected. Share with any hit: about 2%.

SMILES	MenB inh	Mtb MbtI inh	Polio RdRp inh	Polio RdRp inh intensity
CC(C)n1cc(C(=O)O)cn1	-10	3	103	100
Fc1cc(F)c2nc(N3CCOCC3)sc2c1	-13	-3	100	107
CC(C)N=Cc1ccc(-c2ccccc2)cc1	4	-9	105	112
COC(CNC(=O)c1cc(Sc2nnc(C)s2)nc2ccccc12)OC	9	6	101	105
Cn1c(SCc2cccc(-c3noc(-c4ccc(Cl)cc4)n3)c2)nnc1C(F)(F)F	13	5	103	98
Cc1ccc(-n2c(=O)c3oc4ccccc4c3n(CC(=O)NC(C)(C)C)c2=O)cc1	-33	2	104	98
CC(C)C1C(C#N)=C(N)Oc2nc(SCc3ccccc3)[nH]c(=O)c21 (stereo unspecified)	-21	7	103	102
NCCc1nnc2ccccn12	13	i	102	99
Cc1nn(-c2ccccc2)c(C)c1CCC(=O)O	9	-4	102	101
O=C(Cn1ncc(Cl)c(Cl)c1=O)NCc1ccccc1	4	4	92	94
c1ccc(Cc2nnc(-c3ccccc3)o2)cc1	7	-4	99	103
Cc1cccc(C(=O)N2CCN(c3ccc(C(F)(F)F)cn3)CC2)c1C	-25	-2	x	x
O=C1NC(c2cccc(F)c2)c2c1n[nH]c2-c1cccs1 (stereo unspecified)	-5	12	101	102
COC(=O)C1=CN(N(C(C)=O)C(C)=O)C(=O)CC1	-17	-23	101	103
CN(C)CC(O)COC(c1ccccc1)c1ccccc1 (stereo unspecified)	-16	-6	103	107
CC1CCC/C(=C/Nc2ccccc2C(=O)O)C1=O (stereo unspecified)	3	117	99	103
Cc1cn(COCCO)c(=O)[nH]c1=O	-7	-6	102	104
CCOC(=O)NC(=O)Cn1nnc(-c2cccc(C(F)(F)F)c2)n1	-2	-3	106	108
Cn1nnnc1SCCC(=O)Nc1ccccc1	-2	-4	102	100
N#Cc1ccc(NC(=O)c2cccs2)cc1	-2	7	106	104
CCCN1C(=O)/C(=c2\sc3nc(=O)c(-c4ccccc4)nn3c2=O)c2ccccc21	-13	-10	105	106
Cc1ccc(-c2nnc(Nc3ccc(S(N)(=O)=O)cc3)c3ccccc23)cc1S(=O)(=O)N1CCN(C)CC1	-24	-4	105	100
O=C(O)c1ccc(N=Cc2cccn2-c2ccc(Br)cc2)cc1	3	17	98	105
CC(NC(=O)COc1ccc(F)cc1Cl)C1CCCO1 (stereo unspecified)	-9	-11	101	101
CC(C)C(C(=O)O)N1C(=O)c2ccccc2C1=O (stereo unspecified)	-15	x	99	96
Oc1ccccc1C(Nc1ccccn1)c1ccc2cccnc2c1O (stereo unspecified)	-64	x	130	140
CS(=O)(=O)c1cccc(S(=O)(=O)Nc2cccc(C(F)(F)F)c2)c1	-32	-21	102	102
CNc1nc(-c2c[nH]c3ccc(F)cc23)cs1	-50	18	97	123
Cc1cccc(-n2c(Cc3cc(=O)[nH]c(=O)[nH]3)nnc2SCC(=O)NC2CCCC2)c1	-6	4	99	106
CSc1nnc(CNC(=O)C2CCCC2)n1C	9	-7	99	99
COC(=O)c1c2c(nc3ccccc13)CCCCC2	-27	2	101	103
O=C(O)CSc1c2c(nc3cc(C(=O)NCc4cccs4)ccc13)CCCC2	-30	0	101	107
Cc1ccc(-n2cc(-c3ccc4c(c3)OCO4)[nH]c2=S)c(C)c1	7	26	104	108
N#Cc1cccc(C(c2nnnn2Cc2ccccc2)N2CCCC2)c1 (stereo unspecified)	29*	-1	99	99
CCOc1ccc(-c2nc(CN3CCCCC3)cs2)cc1	7	104	99	102
O=C(O)COCC(=O)Nc1ccc(Oc2cccc(C(F)(F)F)c2)nc1	2	-7	104	104
O=C(O)CCc1nc2ccccc2[nH]c1=O	-2	x	102	105
C#CCOC(=O)Nc1ccc(Cl)c(Cl)c1	7	-3	100	104
Cc1c(N=c2scc(-c3ccccc3)n2-c2ccccc2)c(=O)n(-c2ccccc2)n1C	-5	x	107	114
CC1(C)CC(=O)c2cc(C(=O)O)c(=O)n(-c3ccccc3)c2C1	-12	-3	101	101
O=C1CN(C(=O)c2ccc3c(c2)S(=O)(=O)c2ccccc2C3=O)c2ccccc2N1	-8	-2	108	113
Cc1cccn2cc(CSc3nnc(-c4nn(Cc5ccccc5)c(=O)c5ccccc45)o3)nc12	-19	14	113	119
C/C=C1\C2C=C(C)CC1(N)c1ccc(=O)[nH]c1C2 (stereo unspecified)	6	-8	99&99	100&99
C=CCNC(=O)c1ccc(-c2cc(C(F)(F)F)ccc2Cl)o1	-3	8	102	101
Cc1ccc2nc3sc(C(=O)O)c(N)c3cc2c1	-41	46	103	103

Taken from above (five entries):
SMILES	MenB inh	Mtb MbtI inh	Polio RdRp inh	Polio RdRp inh intensity
CC(C)N=Cc1ccc(-c2ccccc2)cc1	4	-9	105	112
COC(CNC(=O)c1cc(Sc2nnc(C)s2)nc2ccccc12)OC	9	6	101	105
Cn1c(SCc2cccc(-c3noc(-c4ccc(Cl)cc4)n3)c2)nnc1C(F)(F)F	13	5	103	98
Cc1ccc(-n2c(=O)c3oc4ccccc4c3n(CC(=O)NC(C)(C)C)c2=O)cc1	-33	2	104	98
CC(C)C1C(C#N)=C(N)Oc2nc(SCc3ccccc3)[nH]c(=O)c21 (stereo unspecified)	-21	7	103	102

Other compounds:
SMILES	MenB inh	Mtb MbtI inh	Polio RdRp inh	Polio RdRp inh intensity
CSC1=N/C(=C\c2ccc(Br)cc2)C(=O)S1	-10	-1	101	103
CC(=O)Nc1cccc2c1C(=O)NC2=O	-5	97	106	105
C=CCN1C(=O)C(CC(=O)NCC(=O)O)SC1=Nc1ccc(Cl)cc1 (stereo unspecified)	14	6	99	105
NC(CC(=O)O)c1ccccc1C(F)(F)F (stereo unspecified)	x	-3	105	107
Cc1cccc2cc(C(c3nnnn3C(C)(C)C)N(Cc3ccccc3)Cc3ccco3)c(=O)[nH]c12 (stereo unspecified)	-26	x	107	104
CCOC(=O)c1cnn(CCOC(=O)c2cccs2)c1NC(=O)c1cccs1	-11	-18	101	99
CC(Cl)(Cl)/C(O)=C(\C#N)c1nnc2n1CCCCC2	x	-7	101	99
COC(=O)c1ccc(NCC(=O)Nc2cc(C)cc(C)c2)cc1	x	-52	102	99
CSc1ccccc1C(=O)OCC(=O)NC1CC1	-5	-11	104	111
C=CCN(CC=C)S(=O)(=O)c1ccc(C(=O)Nc2ccccc2-c2nc3ccccc3[nH]2)cc1	12	51	103	104
COc1ccc(NC(=S)N2CCCC(c3ccccc3)=N2)cc1	-18	-5	97	100
Cc1nc(/N=C(/N)NC(=O)Cc2ccccc2)nc2ccccc12	-11	-7	100	100
CC1CCC(C(=O)NC(Cc2c[nH]c3ccccc23)C(=O)NCc2cccnc2)CC1 (stereo unspecified)	1	-8	103	107
Cc1[nH]nc2nc(SCC(=O)NCCc3ccccc3)n(-c3ccccc3Cl)c(=N)c12	-27	-2	100	96
CC1(/[N+]([O-])=C/c2ccc(Br)cc2)CCCCC1=O (stereo unspecified)	13	8	102	105
COc1ccccc1CN(C)C(=O)C1COc2ccccc2O1 (stereo unspecified)	3	-9	103	103
CCCCc1ccc(-n2nc3cc(C)c(NC(=S)NC(=O)c4ccco4)cc3n2)cc1	-4	-12	101	103
CCCCn1c2ccccc2c2nnc(SCC(=O)N=C3NC(=O)CS3)nc21	-18	12	99	96
CSC1=NCCN1C(=O)c1ccc(S(=O)(=O)N2CCCC2)cc1	-1	3	99	103
CCC(=O)NCc1nc(-c2ccccc2)no1	16	7	102	98
C=CCSc1ncnc2c1sc1nc(CC)c3c(c12)CCCC3	5	2	104	99
COCCNC(=O)c1ccc(N2CC3CC(C2)c2cccc(=O)n2C3)c(NC(=O)c2ccc(F)cc2)c1 (stereo unspecified)	-16	-15	102	103
O=C(COc1ccccc1)c1ccc(O)c(O)c1O	-21	94*	101	102
O=C(O)c1ccc2c(c1)C(=O)N(c1ccccn1)C2=O	10	3	98	100
CC1CC(NC(=S)NCc2csc3ccccc23)CC(C)(C)C1 (stereo unspecified)	-63	1	113	104
O=C(COC(=O)c1cc(=O)[nH]c(=O)[nH]1)Nc1ccccc1	-21	-2	99	92
Cc1ccc(Cc2nnc(C(=O)NCc3ccccc3)o2)cc1	-15	-4	100	103
O=C1C(Cc2ccc(F)cc2)Sc2nc3ccccc3n21 (stereo unspecified)	-2	x	105	109
COC(=O)c1ccc(N=Cc2cccs2)cc1	-6	6	99	105
CCOC(=O)C1=C(N)Oc2c(c(C)nn2-c2ccccc2)C12C(=O)N(C)c1ccccc12 (stereo unspecified)	-16	5	101	103

Sorted by SMILES length (low to high): some entries from above.
SMILES	MenB inh	Mtb MbtI inh	Polio RdRp inh	Polio RdRp inh intensity
CCC(=O)NCc1nc(-c2ccccc2)no1	16	7	102	98
O=C(COc1ccccc1)c1ccc(O)c(O)c1O	-21	94*	101	102
O=C1C(Cc2ccc(F)cc2)Sc2nc3ccccc3n21 (stereo unspecified)	-2	x	105	109
O=C(O)c1ccc2c(c1)C(=O)N(c1ccccn1)C2=O	10	3	98	100
CC1CC(NC(=S)NCc2csc3ccccc23)CC(C)(C)C1 (stereo unspecified)	-63	1	113	104
O=C(COC(=O)c1cc(=O)[nH]c(=O)[nH]1)Nc1ccccc1	-21	-2	99	92
CCCCc1ccc(-n2nc3cc(C)c(NC(=S)NC(=O)c4ccco4)cc3n2)cc1	-4	-12	101	103

(next part)
SMILES	MenB inh	Mtb MbtI inh	Polio RdRp inh	Polio RdRp inh intensity
c1ccc(-c2nnc3n2C2(CCCC2)Cc2ccccc2-3)cc1	-22	-3	102	97
O=C(CSc1ncccn1)NC(=O)NCc1ccco1	-29	2	103	103
CCCNC(=O)c1ccc2c(c1)ncn2-c1cc(OC)ccc1OC	-9	-16	102	107
COC(=O)c1cnn(-c2ccccc2)c1-n1cccc1	9	9	102	97
Cc1cc(C)cc(Nc2cc(=O)oc3ccccc23)c1	-16	7	103	107
CC(C)N(C(=S)NCC1CCCO1)c1ccccc1 (stereo unspecified)	-10	-4	100	99
Cc1ccc(NC(=O)CNC(=O)c2ccc(Br)o2)c(C)c1	8	2	100	102
O=C(O)CCc1nnc2ccc(Cl)nn12	0	8	101	97
CC1CCCN(C(=O)COC(=O)c2ccccc2O)C1 (stereo unspecified)	x	-18	102	108
CCC(=O)N1N=C2C3CCN(CC3)C2C1c1ccccc1 (stereo unspecified)	12	-8	99	101
COC(=O)CN1C(=O)CS/C1=C\C#N	-15	9	101	104
CC1=CC(=O)C2=C(C)C[C@H](O)[C@@H]3[C@H](OC(=O)[C@@H]3C)[C@@H]12	-4	6	100	104
CCN1CCN(C(=O)/C=C/c2cccs2)CC1	x	-1	100	102
CN1CCN(Cc2c3ccccc3cc3ccccc23)CC1	19	x	99	92
Cc1nnsc1C(=O)Nc1cccc(C(F)(F)F)c1	8	4	97	104

Structures listed so far that contain a cyano group, in the order listed:
SMILES	MenB inh	Mtb MbtI inh	Polio RdRp inh	Polio RdRp inh intensity
CC(C)C1C(C#N)=C(N)Oc2nc(SCc3ccccc3)[nH]c(=O)c21 (stereo unspecified)	-21	7	103	102
N#Cc1ccc(NC(=O)c2cccs2)cc1	-2	7	106	104
N#Cc1cccc(C(c2nnnn2Cc2ccccc2)N2CCCC2)c1 (stereo unspecified)	29*	-1	99	99
CC(Cl)(Cl)/C(O)=C(\C#N)c1nnc2n1CCCCC2	x	-7	101	99
COC(=O)CN1C(=O)CS/C1=C\C#N	-15	9	101	104

Full records as entered above. Order of values: MenB inh | Mtb MbtI inh | Polio RdRp inh | Polio RdRp inh intensity
Shown for C=CCNC(=O)c1ccc(-c2cc(C(F)(F)F)ccc2Cl)o1 : -3 | 8 | 102 | 101
Shown for Cc1cccc2cc(C(c3nnnn3C(C)(C)C)N(Cc3ccccc3)Cc3ccco3)c(=O)[nH]c12 (stereo unspecified) : -26 | x | 107 | 104

Next section:
SMILES	MenB inh	Mtb MbtI inh	Polio RdRp inh	Polio RdRp inh intensity
CCN1CCN(C(=O)/C(C#N)=c2\s/c(=C\c3ccco3)c(=O)n2-c2ccc(Cl)cc2)CC1	-50	1	109	119
Cc1cc(C)nc(NC(=O)CSC(=S)N2CCOCC2)n1	1	0	101	104
CN(C)C(=O)Nc1cccc(O)c1	2	9	101	100
Cc1nnc(SCc2ccc(C#N)cc2)n1C1CC1	-7	-6	99	108
Cc1ccc(-c2cn3ccsc3n2)cc1	-1	-41	98	104
Cc1ccc(NC(=O)CSc2nnc3ccccn23)cc1	-1	-135	105	107
Oc1cccc(N=Cc2c[nH]c3ccc(Br)cc23)c1	x	-2	101	98
COCC(C)N=Cc1c(O)[nH]c2ccccc12 (stereo unspecified)	5	7	100	101
O=C(CN(Cc1ccco1)S(=O)(=O)c1ccc(Cl)cc1)N1CCCc2ccccc21	-31	-8	95	89
O=C1Oc2ccc3ccccc3c2C1(O)C(F)(F)F (stereo unspecified)	1	114	100	100
CCn1ncc(Cl)c(Cl)c1=O	-13	x	77*	84*
O=C1CCCN1C(=O)CSc1n[nH]c(=O)n1CCc1ccccc1	-2	-10	105	113
Cc1cc2nn(-c3ccccc3)nc2cc1NC(=O)c1cccs1	-38	x	107	110

Compound activity: PubChem BioAssay, ICCB-Longwood Screening Facility, Harvard Medical School
